Screening results from PubChem BioAssay.
D2 potentiator: Beta-Arrestin HTS for Positive Allosteric Modulators of the Human D2 Dopamine Receptor: Potentiators; D(2) dopamine receptor (Homo sapiens), P14416; DiscoveRx D2 beta-arrestin cells, luminescence, 90 min; 100% = 57 uM dopamine signal; 360,000 tested, 0.23% active; potentiation, % (concentration not given with the values); AID 624464, 2012; active = potentiation of 50% or more; inconclusive = 30% to 50%; inactive = 30% or less;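 further: compound concentration not given in the record; tested on top of an EC20 dose of dopamine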
Target sequence (P14416 whole entry, looked up): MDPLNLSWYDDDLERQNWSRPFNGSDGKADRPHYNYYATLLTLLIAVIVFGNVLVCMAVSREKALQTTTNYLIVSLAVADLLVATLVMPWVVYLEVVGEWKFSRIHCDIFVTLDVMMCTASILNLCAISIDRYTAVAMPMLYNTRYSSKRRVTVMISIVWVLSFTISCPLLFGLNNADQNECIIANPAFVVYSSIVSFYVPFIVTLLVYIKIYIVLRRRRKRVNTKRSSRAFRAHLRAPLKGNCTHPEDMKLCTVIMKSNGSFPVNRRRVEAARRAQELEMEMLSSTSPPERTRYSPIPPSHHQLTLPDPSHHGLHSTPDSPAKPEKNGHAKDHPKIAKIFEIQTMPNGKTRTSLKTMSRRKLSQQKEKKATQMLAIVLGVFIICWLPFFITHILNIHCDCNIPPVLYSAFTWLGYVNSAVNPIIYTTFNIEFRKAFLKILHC
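PathHunter D2 cells, attached overnight at 37 deg C, received compound in DMSO plus dopamine at EC20 (50 nM final) for 90 min at 37 deg C. Beta-arrestin recruitment was read as luminescence after 1 h with detection reagent at ambient temperature.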
TRPML1 agonist: qHTS for Agonists of the Human Mucolipin Transient Receptor Potential 1 (TRPML1) | Mucolipin-1 (Homo sapiens), Q9GZU1 | 410,000 tested, 0.12% active | AID 624414, 2012 | activation, % (test concentration not listed) | TRPML1-expressing cells, Ca2+ dye fluorescence, FDSS; host cell line not named in the record; reference of the full effect not given here; in the data active = activation above about 50%; inconclusive = about 30% to 50%; inactive = below about 30%; further: 0% is about no effect; the text of the record puts the active cut at 80%
Target sequence (Q9GZU1 whole entry, looked up): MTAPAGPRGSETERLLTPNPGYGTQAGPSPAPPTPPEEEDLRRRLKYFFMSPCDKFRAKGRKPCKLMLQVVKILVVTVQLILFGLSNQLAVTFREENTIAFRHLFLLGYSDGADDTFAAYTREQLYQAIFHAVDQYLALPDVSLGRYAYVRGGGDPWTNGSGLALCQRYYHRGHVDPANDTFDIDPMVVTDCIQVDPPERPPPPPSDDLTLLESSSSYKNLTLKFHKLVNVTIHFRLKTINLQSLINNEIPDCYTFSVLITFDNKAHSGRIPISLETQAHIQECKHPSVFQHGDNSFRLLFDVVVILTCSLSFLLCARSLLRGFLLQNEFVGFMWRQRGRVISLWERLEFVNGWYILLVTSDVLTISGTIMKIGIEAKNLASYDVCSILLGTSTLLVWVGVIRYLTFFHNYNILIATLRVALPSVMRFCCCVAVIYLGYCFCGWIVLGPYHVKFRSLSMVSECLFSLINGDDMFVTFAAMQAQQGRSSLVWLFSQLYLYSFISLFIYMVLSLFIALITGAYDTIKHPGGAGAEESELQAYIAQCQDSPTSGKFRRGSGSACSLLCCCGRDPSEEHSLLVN
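Calcium fluorescence on an FDSS kinetic reader gave the read-out. Tet-induced TRPML1-DL cells were plated overnight, dye-loaded (Ca8 with quencher, 45-90 min, room temperature, dark), then read 110 s after compound addition, and again 110 s after 4uM final 54-4 (EC80).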
PINK1 expr mod: A Quantitative High throughput Screen to Identify Chemical Modulators of PINK1 Expression. PINK1 immunofluorescence, high-content cytometry, 24 h. Potency, µM (top dose mostly 76.6 µM), for the others: top-dose activation (PINK1 increase), actives largely listed as activators. 410,000 tested, 0.2% active; active = well fitted activation curve with a large enough effect; inconclusive = small, poorly fitted or top-dose-only effect; inactive = flat fitted curve, though single readings scatter; cell line not stated here;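 further: potency means the concentration at half of the fitted maximal effect; % of control where 0% means no effect; nearly all actives have a fitted effect of over 65% in size; a mitochondrial uncoupler was the plate control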
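Decision-based qHTS: stable cells, 24 h exposure to five compound concentrations, CCCP as control. Fixed cells stained for PINK1 plus nuclear, mitochondrial and cell markers, cytometer read.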
CtBP-E1A blk: qHTS Assay for Inhibitors of the CtBP/E1A Interaction | CtBP / adenovirus E1A interaction (AlphaScreen) | AlphaScreen GST-E1A/His-CtBP binding, 1536-well; hits give low values; control for the full effect not named in the record | activity change, % (no concentration beside the values) | 340,000 tested, 0.49% active; in the data active means activity change below about -65%; inconclusive means about -30% to -65%; inactive means above about -30%; further: on the % scale 0 is the no-effect control and ±100 the full control effect; compound concentration not given in the record
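Protein mix (5X: 125 nM each GST-E1A, His-CtBP) was incubated with pinned compound 2 h at 37 deg C in dark, in 50 mM Tris pH 8.0 buffer with 300 mM NaCl. Glutathione donor and nickel acceptor beads followed; AlphaScreen signal read after 1 h.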
Six1-Eya2 inh: qHTS Assay for Inhibitors of the Six1/Eya2 Interaction; Homeobox protein SIX1 (Homo sapiens) + Protein phosphatase EYA2 (Homo sapiens), …; AlphaScreen GST-Six1/His-Eya2 binding, biochemical; hits give low values; control for the full effect not named in the record; activity change, % (no concentration beside the values); 360,000 tested, 0.56% active; AID 651725, 2012; in the data active = activity change below about -65%; inconclusive = about -30% to -65%; inactive = above about -30%; further: on the % scale 0 is the no-effect control and ±100 the full control effect; compound concentration not given in the record
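AlphaScreen luminescence read after one hour at 37 °C in darkness. Pin-transferred compounds met GST-Six1 and His-Eya2 protein (5X stock 250 nM/500 nM) plus glutathione donor and Ni-chelate acceptor beads (5X, 50 ug/mL).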
D2 agonist: Beta-Arrestin HTS for Positive Allosteric Modulators of the Human D2 Dopamine Receptor: Agonists; D(2) dopamine receptor (Homo sapiens), P14416; AID 624465, 2012; DiscoveRx PathHunter D2 beta-arrestin, luminescence, 90 min; 100% = 57 uM dopamine signal; 360,000 tested, 0.084% active; activation, % (test concentration not listed); in the data active = activation above about 40%; inconclusive = about 15% to 40%; inactive = below about 15%; further: compound concentration not given in the record; the text of the record calls up to 30% inactive
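Agonist mode: compounds alone added to overnight-plated D2 PathHunter cells for 90 min at 37 C, with 57 uM final dopamine (EC100) defining full response. Beta-arrestin recruitment detected by chemiluminescent reagent, read after 1 h at ambient temperature.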
Numbers without * were called inactive; ? = inconclusive; · = not tested or not shown; [ ] = dose if it differs, or a comment.

1: CC(C)(C)n1nnnc1C(c1cccs1)N1CCN(Cc2ccccc2)CC1 (configuration not stated)
2: CC(C)n1nccc1NC(=O)COC(=O)c1ccc(NC(N)=O)cc1
3: CCn1c(=O)cc(OCC(=O)Nc2ccc(C)cn2)c2ccccc21
4: C=CCn1c(CCSCc2ccccc2)n[nH]c1=S
5: CC(=O)c1cc2c(cc1NC(=O)CSc1nnc(C3CC3)n1C)OCO2
6: Cc1cc(C)cc(NC(=O)CSc2nc3c(oc4ccccc43)c(=O)n2-c2ccccc2)c1
7: CN=c1scc(-c2ccccc2F)n1/N=C/c1ccc[nH]1
8: CCn1c(SCC(=O)NC2=NCCS2)nnc1C(C)NC(=O)c1ccccc1F (configuration not stated)

Screen / compound no.	1	2	3	4	5	6	7	8
TRPML1 agonist	0.0	1.5	0.1	-0.1	-0.5	0.9	-0.1	0.2
Six1-Eya2 inh	0	-6	-3	3	-5	3	-28	-1
D2 potentiator	-17	-4	-6	-14	-13	15	-10	0
CtBP-E1A blk	-1	-12	-1	·	2	-1	-24	0
PINK1 expr mod	-0.4%[38.3 µM]	-2.2%	12%[38.3 µM]	-0.6%	-0.4%	1.5%	3.0%	5.8%
D2 agonist	1.0	-1.4	0.3	-4.5	-2.2	-1.5	-4.2	3.0

Quoted from above, entries 4–6
4: C=CCn1c(CCSCc2ccccc2)n[nH]c1=S
5: CC(=O)c1cc2c(cc1NC(=O)CSc1nnc(C3CC3)n1C)OCO2
6: Cc1cc(C)cc(NC(=O)CSc2nc3c(oc4ccccc43)c(=O)n2-c2ccccc2)c1

Screen / compound no.	4	5	6
TRPML1 agonist	-0.1	-0.5	0.9
Six1-Eya2 inh	3	-5	3
D2 potentiator	-14	-13	15
CtBP-E1A blk	·	2	-1
PINK1 expr mod	-0.6%	-0.4%	1.5%
D2 agonist	-4.5	-2.2	-1.5

(cont.)
9: CC(O)(CS(=O)(=O)Cc1ccccc1Cl)C(=O)Nc1cccc(C(F)(F)F)c1 (configuration not stated)
10: O=C(CSCc1ccccc1Br)Nc1ccccc1
11: O=C(c1cc(-c2ccccc2Cl)nc2ccc(Br)cc12)N1CCN(c2ccccn2)CC1
12: COC(=O)c1cc(C(C)=O)n2ccccc12
13: CCCN(CCC)CC(=O)NCC1(c2ccccc2)CCOCC1
14: O=C1NCCN(CC2CCN(CCC3CCCC3)CC2)C1=O
15: COc1ccc(S(=O)(=O)N(C)Cc2ccc3c(c2)OCCO3)cc1
16: CC(C)(C)OC(=O)CC[C@@H](C(=O)N1CCN(C(=O)OC(C)(C)C)CC1)n1cc(C(Cc2ccc(O)cc2)NC(=O)OC(C)(C)C)nn1 (some centres not stated)

Screen / compound no.	9	10	11	12	13	14	15	16
TRPML1 agonist	0.4	0.8	1.8	-0.8	0.2	0.2	-0.5	1.7
Six1-Eya2 inh	0	7	-5	-1	-3	0	-12	-3
D2 potentiator	-16	-5	5	?	6	-9	-4	-3
CtBP-E1A blk	4	9	8	-8	-3	-2	·	1
PINK1 expr mod	?	-0.7%	1.7%	0.4%	0.9%	1.8%	1.0%	0.3%
D2 agonist	-2.3	-5.4	-3.5	-2.0	0.4	-8.4	-1.9	4.2

17: S=C(Nc1ccc(Cl)cc1)NC1CC2CCCC(C1)N2C1CC1 (configuration not stated)
18: COc1ccc([N+](=O)[O-])cc1NC(=O)C(C)Sc1ccccc1 (configuration not stated)
19: COc1ccccc1NC(=O)CSc1nc2[nH]ncc2c(=O)[nH]1
20: CN=Cc1sc2ccccc2c1O
21: Cc1ccc2c(c1)C(=O)C(=O)N2CCOc1ccccc1
22: CC1CCN(S(=O)(=O)c2ccc3c(c2)C(=NO)c2cc(S(=O)(=O)N4CCC(C)CC4)ccc2-3)CC1
23: CCOc1ccccc1NC(=O)CSc1nc2ccccc2c(=O)n1CC1CCCO1 (configuration not stated)
24: COCCn1c(SCC(=O)c2ccccc2)nc2c(c1=O)SC(C)C2 (configuration not stated)

Screen / compound no.	17	18	19	20	21	22	23	24
TRPML1 agonist	3.1	5.3	-0.4	0.4	0.7	0.5	-0.1	1.0
Six1-Eya2 inh	-1	-5	-8	0	-1	10	-8	-9
D2 potentiator	-20	-4	-3	-12	-25	?	-3	-20
CtBP-E1A blk	4	4	2	3	2	4	7	10
PINK1 expr mod	·	1.8%	3.4%	-2.1%[38.3 µM]	0.1%	-2.4%	3.0%	4.4%[38.3 µM]
D2 agonist	-3.2	0.1	-4.8	0.6	-9.3	?	-5.5	-3.4

25: CCOc1ccc(NS(=O)(=O)c2cc(C(=O)N(CC)CC(=O)NCc3cccs3)ccc2C)cc1
26: COc1ccc(S(=O)(=O)N2CCN(C(=S)Nc3ccc(S(N)(=O)=O)cc3)CC2)cc1
27: COCCN=C1N[C@@H](c2cccc(C(F)(F)F)c2)C(C(=O)OC)=C(C)N1Cc1ccccc1
28: Cc1ccc(S(=O)(=O)N2CCN(Cc3ccccn3)CC2)cc1
29: CCc1ccc2c(c1)c1nnc(NN)nc1n2C
30: O=C(NCCN1CCCC1)c1ccc(Cn2c(=S)[nH]c3cc4c(cc3c2=O)OCO4)cc1
31: COc1cccc(CNC(=O)C(=O)NCCc2ccc(OC)c(OC)c2)c1
32: COc1cc2c(cc1OC)CN(C(=O)c1sccc1C)CC2

Screen / compound no.	25	26	27	28	29	30	31	32
TRPML1 agonist	0.7	0.6	-0.1	1.0	1.2	-0.3	-0.5	-0.2
Six1-Eya2 inh	-1	-5	1	-1	-22	-9	2	3
D2 potentiator	-4	4	-13	?	-9	-15	-15	-1
CtBP-E1A blk	-6	-7	0	·	-18	2	17	10
PINK1 expr mod	-0.7%	-1.8%	2.1%	3.0%	1.6%	-0.9%	12%	-1.0%
D2 agonist	-4.9	-2.0	-3.6	3.8	0.0	-2.2	-3.0	-0.5

33: COCCN=C1N[C@@H](c2ccc(Br)cc2)C(C(=O)OC)=C(C)N1Cc1ccccc1
34: CS(=O)(=O)N(CC(=O)NCc1ccccc1)C1CCCCC1
35: Cc1nc(N2CCN(Cc3ccccc3)CC2)nc2c1CCC2
36: COc1ccc2[nH]c3c(c2c1)CCN1C(=O)C(CC(=O)NCc2ccco2)C[C@H](C(=O)N2CCOCC2)[C@@]31C (some centres not stated)
37: O=C(Cn1ncc(Cl)c(Cl)c1=O)NC1CCCCC1
38: C=CCN(C(=O)c1ccc(Cl)cc1)c1ccccc1C(=O)NCC(=O)O
39: CC(=O)Nc1ccc(S(=O)(=O)NC2(C(F)(F)F)N=C(c3ccccc3)NC2=O)cc1 (configuration not stated)
40: COc1ccc(-c2nc(=S)n3ccsc3n2)cc1OC

Screen / compound no.	33	34	35	36	37	38	39	40
TRPML1 agonist	-0.1	-1.0	0.1	-0.9	3.3	-0.2	0.3	-0.4
Six1-Eya2 inh	-4	-1	-12	-7	-1	11	1	3
D2 potentiator	-5	-3	-14	-7	-1	-4	-11	-2
CtBP-E1A blk	-1	2	-4	-3	6	10	7	4
PINK1 expr mod	1.3%	0.4%	3.0%	-0.2%	-0.3%	-0.4%	3.3%[38.3 µM]	1.1%
D2 agonist	-0.6	-4.0	-5.2	-2.9	5.3	-0.2	-1.4	-1.0

41: COc1ccc(C(=O)N2CCN(c3ccc(N4CCOCC4)nn3)CC2)cc1OC
42: CCc1cc(C(=O)N2CCN(C(=O)c3ccccc3)CC2)sc1C
43: CCOC(=O)c1cnc(SCC(=O)Nc2ccccc2C(=O)OC)nc1N
44: Cc1ccc(-c2csc(N=C(N)N)n2)c(C)c1
45: Cc1cccc(N2CCN(C(=O)C3CCN(S(=O)(=O)c4cccc5cccnc45)CC3)CC2C)c1 (configuration not stated)
46: COc1ccc(CCNC(=O)c2ccccc2NC(=O)CN2CCN(c3ccccc3O)CC2)cc1
47: CC(C)c1ccc(-c2csc(NC(=O)c3cccs3)c2C(=O)O)cc1
48: O=C1NC[C@H](c2ccccc2)N(CC2CCCCC2)C1=O

Screen / compound no.	41	42	43	44	45	46	47	48
TRPML1 agonist	1.2	-0.9	0.7	21	0.2	1.5	-0.2	0.3
Six1-Eya2 inh	5	3	-9	-15	-6	-12	-10	5
D2 potentiator	9	9	-6	-11	9	20	-10	-8
CtBP-E1A blk	5	7	-5	-24	-15	1	-24	·
PINK1 expr mod	-4.8%	2.1%	0.7%	-1.2%	0.8%	-10%	0.3%	-0.2%
D2 agonist	2.1	-1.5	-1.2	-3.8	6.9	-0.5	0.8	0.1

49: O=C(Nc1cccnc1)C1CC(c2ccc(Cl)c(Cl)c2)=NO1 (configuration not stated)
50: C/C(=N/NC(=O)c1sc(NS(=O)(=O)c2ccc(C)cc2)nc1C)c1sc(N)nc1C
51: Cc1cc(NC(=O)c2noc3c2CCCCC3)no1
52: O=C(Nc1nn[nH]n1)c1cccc([N+](=O)[O-])c1
53: CCc1ccc2nc(N3CCN(C)CC3)c(C#N)cc2c1
54: Cc1ccc(C(C)(C)C)c(OCCOCCN2CCCC2)c1
55: CC(C)(C)C(=O)N1CCCC1C(=O)O (configuration not stated)
56: COc1ccc(S(=O)(=O)N2CCN(Cc3ccccc3[N+](=O)[O-])CC2)cc1

Screen / compound no.	49	50	51	52	53	54	55	56
TRPML1 agonist	0.6	-0.8	0.3	-1.2	-1.0	0.2	1.1	0.8
Six1-Eya2 inh	-5	3	2	4	4	1	4	?
D2 potentiator	-1	-3	-6	3	-30	-30	23	-6
CtBP-E1A blk	-12	16	7	-9	1	-1	2	-10
PINK1 expr mod	0.4%[38.3 µM]	-0.4%	-1.9%[38.3 µM]	0.1%	-0.9%	8.4%	-3.1%	-0.6%
D2 agonist	2.5	-2.7	-3.6	-1.0	-2.2	-3.1	-1.3	-5.5

No enrichment for hits. Share with any hit: about 1.3%.
